# Tau filament bind: tau filament binding; 71,000 compounds, 2% hits; recombinant tau filaments, thioflavin S fluorescence, 15 h; filaments grown with octadecylsulfate alongside compound; P10636; Potency, µM (series often up to 57.1 µM), inactives show at the top dose activity change, negative = inhibition;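 note: potency is the fitted concentration of half-maximal effect; % is set by controls: 0 for no effect and ±100 for the full control effect; actives lower thioflavin S fluorescence by blocking filaments or displacing dye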
# Target sequence (P10636 whole entry, looked up): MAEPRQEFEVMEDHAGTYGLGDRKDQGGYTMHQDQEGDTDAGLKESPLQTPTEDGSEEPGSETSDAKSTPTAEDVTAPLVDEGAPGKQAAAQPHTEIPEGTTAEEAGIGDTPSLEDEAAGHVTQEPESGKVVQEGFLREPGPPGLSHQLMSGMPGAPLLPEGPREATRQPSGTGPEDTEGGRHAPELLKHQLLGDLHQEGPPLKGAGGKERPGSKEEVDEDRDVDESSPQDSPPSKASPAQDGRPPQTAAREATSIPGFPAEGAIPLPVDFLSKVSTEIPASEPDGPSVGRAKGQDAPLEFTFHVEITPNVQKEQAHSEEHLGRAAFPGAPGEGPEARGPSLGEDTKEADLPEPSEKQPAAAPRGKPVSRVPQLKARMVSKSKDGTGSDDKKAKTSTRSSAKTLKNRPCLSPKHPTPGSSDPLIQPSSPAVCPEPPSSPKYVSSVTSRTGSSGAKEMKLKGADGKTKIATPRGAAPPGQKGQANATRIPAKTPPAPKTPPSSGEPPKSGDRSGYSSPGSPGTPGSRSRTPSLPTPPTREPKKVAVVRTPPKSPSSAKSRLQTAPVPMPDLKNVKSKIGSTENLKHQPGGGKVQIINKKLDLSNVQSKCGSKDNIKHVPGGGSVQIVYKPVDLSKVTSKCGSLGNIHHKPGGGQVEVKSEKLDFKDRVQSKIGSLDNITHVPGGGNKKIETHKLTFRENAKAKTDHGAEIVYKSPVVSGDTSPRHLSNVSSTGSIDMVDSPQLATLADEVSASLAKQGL
#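 Recombinant tau protein (human, 1 uM final) plus 30 uM ODS in HEPES pH 7.4 with NaCl, DTT and thioflavine S. Compound present from the start; fluorescence at 510 nm after 15 h, 37 C.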
# BRCT inh green: inhibitors of human BRCA1 BRCT-phosphoprotein interaction (green fluorophore); BRCA1 BRCT-phosphopeptide binding, green fluorescence polarization; P38398; AID 875; 75,000 compounds, 0.05% hits; Potency, µM (titrated, usually from 76.9 µM), for the others: at the top dose activity change, negative = inhibition, actives largely listed as inhibitors;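 note: potency is the fitted concentration of half-maximal effect; plate controls were peptide without protein for full effect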
#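 Fluorescence polarization: His-tagged BRCT (~35 kDa BRCA1 C-terminus, 250 nM) bound to 100 nM fluorescein-labeled phosphorylated 10-aa BACH1 peptide, pH 7.3 phosphate buffer with DTT and Tween 20. Compounds incubated 12 min at room temperature; inhibition read as lowered polarization.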
# Luciferase inh: blocks Photinus pyralis firefly luciferase activity; P08659; 72,000 compounds, 2.2% hits; AID 411; purified firefly luciferase, luminescence, 8 min; Potency, µM (top dose mostly 57.1 µM), for inactives: at the highest dose activity change, negative = inhibition, actives largely listed as inhibitors; note: potency is the fitted concentration of half-maximal effect; % is set by controls: 0 for no effect and ±100 for the full control effect; nearly all actives have a fitted effect of over 40% in size
#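 Substrate buffer containing 10 uM ATP (pH 7.2 imidazole, Mg2+, KCl, detergent, BSA) is dispensed, compound pinned in, then luciferase/luciferin detector mix added. After 8 min at ambient temperature, light output is measured.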
# ERK AVP block: vasopressin-driven ERK pathway inhibition. HEK293-V1b, vasopressin-stimulated pERK AlphaScreen. 72,000 compounds, 0.99% hits. Potency, µM (series often up to 57.5 µM), inactives show at the top dose activity, negative = inhibition, usual class: inhibitors. AID 995; note: potency is the fitted concentration of half-maximal effect; % is set by controls: 0 for no effect and ±100 for the full control effect; nearly all actives have a fitted effect of over 55% in size
#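 HEK293 cells stably expressing V1b receptor, seeded overnight in 1% FBS, were treated with compounds for 30 min at 37C, then stimulated 5 min with 25 nM vasopressin; phospho-ERK read by AlphaScreen SureFire after lysis.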
# USP2a inhib: blocks human ubiquitin-specific protease USP2a; O75604; USP2a enzymatic assay, qHTS inhibition; Potency, µM (highest dose often 38.3 µM), without a hit: at the top dose activity change, negative = inhibition, most hits filed as inhibitors; 60,000 compounds, 0.1% hits;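 note: potency is the fitted concentration of half-maximal effect; nearly all actives have a fitted effect of over 60% in size; plate controls were DMSO for no effect and NEM full inhibition control for full effect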
#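 Inhibition is measured in a cell-free coupled assay with 20 nM USP2 core, 20 nM Ub-PLA2 and 20 uM NBD C6-HPC, 2.5 h incubation. Activity normalized to NEM control.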
# HEK293 cAMP cs: parental HEK293 cAMP activation (counter-screen); parental HEK293 CNG cAMP sensor, membrane potential fluorescence; Potency, µM (doses to about 57.1 µM), inactives show top-dose activation, usual class: activators; 73,000 compounds, 2.5% hits; AID 938; note: potency is the fitted concentration of half-maximal effect; % of control where 0% means no effect; nearly all actives have a fitted effect of over 55% in size
#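 Parental HEK 293 cells stably expressing a modified CNG channel (no TSHR) report cAMP rise as membrane depolarization. Membrane potential dye with 100 uM RO 20-1724 was loaded for 60 min at room temperature, then compound added for 30 min; fluorescence read at 590 nm.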
# BRCT PPI red: inhibitors of human BRCA1 BRCT-phosphoprotein interaction (red fluorophore); P38398; BRCT-phosphopeptide binding, red fluorescence polarization; Potency, µM (titrated, usually from 76.9 µM), without a hit: at the top dose activity change, negative = inhibition, usual class: inhibitors; 75,000 compounds, 0.03% hits; note: % is set by controls: 0 for no effect and ±100 for the full control effect
#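 Rhodamine-labelled pBACH1 10-mer (100 nM) bound to BRCT domain (100 nM) at pH 7.3; compounds incubated 12 min room temperature, polarization read. Free peptide defines full inhibition; unlabelled decapeptide titrated as control.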
# CRE-bla Fsk: CRE-bla signaling modulation under forskolin stimulation. CHO CRE-bla reporter (cAMP response element driving beta-lactamase), forskolin EC10, beta-lactamase ratio. Potency, µM (series often up to 38.2 µM), inactives show top-dose activity change, negative = inhibition, hits mostly activators. 71,000 compounds, 2.5% hits; active = well fitted activation curve with a large enough effect in the signal ratio, with a control signal flat, not every such curve was filed as active; inconclusive = small, poorly fitted or top-dose-only effect, or effect the other way, or a change in a side signal; the % refers to the signal ratio; note: potency is the fitted concentration of half-maximal effect; % of control where 0% means no effect
#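 Beta-lactamase reporter under a cAMP responsive element in CHO cells; compounds tested in titration series against EC10 NKH 477, 3 h at 37 °C. Read-out: CCF4 FRET ratio 460nm/530nm (excitation 405nm) giving %Activity, fitted to AC50.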
# Numbers without * were called inactive; i = inactive; ? = inconclusive; [ ] = dose if it differs, or a comment. Unless noted, calls come from the whole dose curve; as a rule, active = well fitted curve in the direction sought with a large enough effect; inconclusive = small, poorly fitted or top-dose-only effect, or another doubt; inactive = no such curve, though single readings can be large; an effect the other way counts as inactive or inconclusive. Some of the compounds tested, so the mix of outcomes need not match the whole.
mol	BRCT PPI red	CRE-bla Fsk	HEK293 cAMP cs	USP2a inhib	Tau filament bind	BRCT inh green	Luciferase inh	ERK AVP block
COc1ccc(-c2nc3cnc(OC)nc3n(Cc3cccc(OC)c3)c2=O)cc1	-3.2%	2.5µM*	15%	166%[activator]	1%	3.4%	0%[11.4 µM]	16%
CCN(CC)c1ccc(-c2nn3c(-c4n[nH]c5c4CCC5)nnc3s2)cc1	1.7%	?	32µM*	?	408%	12%	-7%	?
Cc1cc(C)c2c(n1)nn1c(N3CCN(Cc4ccccc4)CC3)cc(C)nc21	0.3%	?	17%	17%	33%	-1.7%	2%	42%
CN1CCN(c2ncc3nc(-c4cc(F)cc(F)c4)c(=O)n(CCc4ccccc4)c3n2)CC1	-0.9%	?	-7%	157%[activator]	121%	-0.3%	2%[11.4 µM]	1%
CC1CCCN(CCCNC(=O)c2coc3nc4ccccc4nc23)C1 (configuration not stated)	1.3%	?	1%	9%	-36%	1.7%	-3%	25%
CCCc1nc(-c2cc3ccc(C)cc3[nH]c2=O)no1	-0.5%	2%	14%	7%	24%	-0.1%	-3%	0%
COc1cccc(Cn2c(=O)c(C)nc3cnc(Nc4ccccc4)nc32)c1	2.6%	?	16%	75%[activator]	40%	13%	0%[11.4 µM]	-1%
Cc1cccc(N=c2oc3cc(O)ccc3cc2C(N)=O)c1	-0.5%	13µM*	13%	20%	403%	3.8%	-15%	-6%
Cc1cc(-n2c(=O)c(C#N)cc3c(=O)n4ccccc4nc32)no1	0.0%	?	-6%	18%	100%	-1.6%	2%	-17%
O=c1c(CCc2ccccc2)nc2cnc(Nc3ccccc3)nc2n1Cc1cccs1	0.4%	?	1.3µM*	137%[activator]	-24%	5.4%	0%[11.4 µM]	-15%
O=c1c(-c2cccs2)nc2cnc(Oc3ccccc3)nc2n1Cc1cccs1	-0.6%	?	18%	203%[activator]	-8%	-0.7%	2%[11.4 µM]	13%
CN(C)c1ncc2nc(-c3cc(F)cc(F)c3)c(=O)n(CCC#N)c2n1	1.4%	?	-8%	47%[activator]	60%	2.9%	1%[11.4 µM]	7%
Cc1ccc(-c2cc3nc(C)cc(NCc4ccco4)n3n2)cc1	-0.5%	13µM*	12%	12%	37%	3.0%	7.9µM*	9%
Cc1c(O)ccc2c3c(c(=O)oc12)CCC(C)C3 (configuration not stated)	1.3%	3.2µM*	13%	23%	42%	0.3%	-2%	-21%
CC(=O)Nc1nc2n(n1)C(c1ccc(F)cc1)C=C(c1ccccc1)N2 (configuration not stated)	-6.5%	?	11%	34%[activator]	i	-8.1%	0%	-27%
CN1CCN(c2ncc3nc(-c4ccccc4)c(=O)n(CCC#N)c3n2)CC1	-0.2%	?	?	32%[activator]	-10%	-1.1%	0%[11.4 µM]	-14%
Cn1cc(-c2nc3cnc(Oc4ccccc4)nc3n(CCC#N)c2=O)c2ccccc21	-0.3%	?	13%	121%[activator]	89%	-7.2%	1%[11.4 µM]	30%[activator]
Cc1ccc2[nH]c(=O)c(-c3noc(-c4ccncc4)n3)cc2c1	0.7%	2%	-6%	10%	-13%	-0.1%	-1%	-9%
COc1cccc2c(=O)c3c(cnn3C)n(C)c12	-1.0%	10µM*	8%	14%	60%	-1.7%	-1%	-4%
COCCn1c(=O)c(C)nc2cnc(N(C)C)nc21	-0.4%	?	8%[2.29 µM]	-16%	1%	0.4%	1%[11.4 µM]	-12%
Fc1ccc(Br)cc1C1C=C(c2ccc(Br)s2)Nc2ncnn21 (configuration not stated)	0.5%	?	?	61%[activator]	i	31%[activator]	-1%	23%
CCN(CC)c1ccc2c(C)c(CN3CCOCC3)c(=O)oc2c1	-2.7%	?	29%	4%	i	-1.1%	1%	8%
CC1(C)CC(=O)c2cc(OCC(=O)NCCN3CCCc4ccccc43)ccc2O1	0.5%	-11%	29%	17%	1%	-1.9%	2%	17%
COc1ccc(C2C=C(c3ccc(Br)s3)Nc3ncnn32)cc1OC (configuration not stated)	-1.2%	?	-3%	80%[activator]	i	?	-3%	?
COc1cccc(Cn2c(N)c(C#N)c3nc4ccccc4nc32)c1OC	0.6%	5µM*	-12%	8%	34%	9.3%	-1%	?
COCCCNC(=O)c1ccc2nc3ccccc3c(=O)n2c1	-4.1%	?	3%	-8%	5%	-2.7%	-2%	-16%
COCCn1c(=O)c(-c2ccc(Cl)cc2)nc2cnc(Oc3cccc(Cl)c3)nc21	-1.5%	?	1%	50%[activator]	-11%	-0.6%	1%[11.4 µM]	-16%
N#Cc1cccc(-c2nc3cnc(N4CCOCC4)nc3n(Cc3ccc(F)cc3)c2=O)c1	-0.8%	?	19%	31%[activator]	14%	-1.8%	2%[11.4 µM]	-17%
COc1ccccc1C(=O)N1CCN(c2nc3cc(C)c(C)cc3cc2C#N)CC1	-1.1%	?	13µM*	192%[activator]	49%	3.3%	-3%	14%
Cc1nnc2sc(-c3cccc(NC(=O)c4cccnc4)c3)nn12	1.8%	12%	15%	12%	63%	0.3%	?	?
CSC1=C(C#N)C(C)C2=C(CC(C)(C)CC2=O)N1 (configuration not stated)	-1.3%	?	-1%	7%	1%	-2.5%	1%	5%
COc1cccc(C2C=C(c3cccs3)Nc3ncnn32)c1OC (configuration not stated)	-0.6%	?	10%	10%	i	-3.1%	5%	28%
COc1cc2ccc(=O)oc2cc1O	-0.4%	?	3%	-2%	154%	-2.4%	1%[11.4 µM]	4%
O=c1oc2cc(O)ccc2c2c1CCCC2	-3.4%	?	26%	-5%	19%	0.3%	-4%	-16%
CCN(CC)S(=O)(=O)c1ccc2[nH]cc(C(=O)NCCN3CCCCCC3)c(=O)c2c1	0.2%	-2%	1%	26%	13%	0.5%	1%	-7%
N#CC1(C#N)C2=C(CCCC2)NC(c2ccccc2)C1(C#N)C#N (configuration not stated)	-1.2%	-9%	4%	25%	137%	7.4%	1%	-8%
COc1ccc(Oc2ncc3nc(-c4cccs4)c(=O)n(CCC#N)c3n2)cc1	0.6%	?	3%[2.29 µM]	288%[activator]	44%	56%[activator]	0%[11.4 µM]	-20%
COc1ccc(C2=CC(c3c(C)nn(-c4ccccc4)c3Cl)n3nnnc3N2)cc1OC (configuration not stated)	0.7%	2.5µM*	18%	33%[activator]	337%	4.2%	1%	?
O=c1c(-c2cc(F)cc(F)c2)nc2cnc(Oc3ccccc3)nc2n1C[C@H]1CCCO1	-0.1%	?	16%	58%[activator]	3%	1.7%	0%[11.4 µM]	?
O=c1[nH]c2ccccc2nc1-c1cccs1	-1.1%	?	14%	-1%	0%	-0.2%	-4%	-5%
O=C(CN1C(=O)c2cccc3cccc1c23)Nc1ccc(S(=O)(=O)N2CCOCC2)cc1	-0.3%	?	3%	45%[activator]	-10%	-2.5%	1%	9%
COC(=O)c1c(NC(=O)c2ccco2)sc(C)c1C	-0.9%	10µM*	26%	10%	76%	0.2%	0%	-2%
Cc1ccc(S(=O)(=O)c2c(N)n(C)c3nc4ccccc4nc23)cc1	-0.3%	?	-12%	37%[activator]	-3%	3.0%	3%	?
CCC(=O)Nc1ccc(N2CCN(C(=O)c3ccccc3C)CC2)cc1	0.0%	7%	?	31%[activator]	4%	-2.1%	1%	-3%
COc1ccc(-c2nc3cnc(Nc4ccccc4)nc3n(CCC#N)c2=O)cc1	0.4%	?	12%	73%[activator]	i	123%[activator]	0%[11.4 µM]	-7%
CCc1nnc2sc(-c3ccc(NC(=O)c4ccc5c(c4)OCCO5)cc3)nn12	-0.3%	28%	9%	40%[activator]	88%	-1.4%	2%	-10%
O=C(Nc1ccc(Cl)cc1)c1cc2nc(-c3ccco3)cc(C(F)(F)F)n2n1	0.6%	?	-16%	27%	-14%	3.8%	1%	15%
CCOC(=O)Nc1cccc(Nc2ccccc2)c1	-0.7%	0%	-11%	-3%	-10%	0.1%	-3%	?
COc1ccccc1NC(=O)c1ccc(-c2ccccc2F)o1	0.6%	?	25µM*	2%	63%	-0.1%	-16%	-4%

# 8 of these compounds, set out differently.
# The line under a structure holds: BRCT PPI red, CRE-bla Fsk, HEK293 cAMP cs, USP2a inhib, Tau filament bind, BRCT inh green, Luciferase inh, ERK AVP block
COc1ccc(-c2nc3cnc(OC)nc3n(Cc3cccc(OC)c3)c2=O)cc1
→ -3.2%, 2.5µM*, 15%, 166%[activator], 1%, 3.4%, 0%[11.4 µM], 16%
CCN(CC)c1ccc(-c2nn3c(-c4n[nH]c5c4CCC5)nnc3s2)cc1
→ 1.7%, ?, 32µM*, ?, 408%, 12%, -7%, ?
Cc1cc(C)c2c(n1)nn1c(N3CCN(Cc4ccccc4)CC3)cc(C)nc21
→ 0.3%, ?, 17%, 17%, 33%, -1.7%, 2%, 42%
CN1CCN(c2ncc3nc(-c4cc(F)cc(F)c4)c(=O)n(CCc4ccccc4)c3n2)CC1
→ -0.9%, ?, -7%, 157%[activator], 121%, -0.3%, 2%[11.4 µM], 1%
CC1CCCN(CCCNC(=O)c2coc3nc4ccccc4nc23)C1 (configuration not stated)
→ 1.3%, ?, 1%, 9%, -36%, 1.7%, -3%, 25%
CCCc1nc(-c2cc3ccc(C)cc3[nH]c2=O)no1
→ -0.5%, 2%, 14%, 7%, 24%, -0.1%, -3%, 0%
COc1cccc(Cn2c(=O)c(C)nc3cnc(Nc4ccccc4)nc32)c1
→ 2.6%, ?, 16%, 75%[activator], 40%, 13%, 0%[11.4 µM], -1%
Cc1cccc(N=c2oc3cc(O)ccc3cc2C(N)=O)c1
→ -0.5%, 13µM*, 13%, 20%, 403%, 3.8%, -15%, -6%
